# From PubChem BioAssay
# Beta2AR agonist – activates human beta-2 adrenergic receptor causing internalization; Am2.2-beta2AR cells, FAP receptor internalization, flow cytometry; reference of the scale not given here; response, % (concentration not given with the values); 340,000 tested, 0.43% active; AID 504454;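 active = response above a set limit, near 3 SD of response in nonfluorescent compounds, cut at about 42% in these data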;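 note: stock transfer was 100 nL into about 11 µL; a reference agonist was the positive control; negative values mostly stem from fluorescent compounds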
# Target sequence (P07550 whole entry, looked up): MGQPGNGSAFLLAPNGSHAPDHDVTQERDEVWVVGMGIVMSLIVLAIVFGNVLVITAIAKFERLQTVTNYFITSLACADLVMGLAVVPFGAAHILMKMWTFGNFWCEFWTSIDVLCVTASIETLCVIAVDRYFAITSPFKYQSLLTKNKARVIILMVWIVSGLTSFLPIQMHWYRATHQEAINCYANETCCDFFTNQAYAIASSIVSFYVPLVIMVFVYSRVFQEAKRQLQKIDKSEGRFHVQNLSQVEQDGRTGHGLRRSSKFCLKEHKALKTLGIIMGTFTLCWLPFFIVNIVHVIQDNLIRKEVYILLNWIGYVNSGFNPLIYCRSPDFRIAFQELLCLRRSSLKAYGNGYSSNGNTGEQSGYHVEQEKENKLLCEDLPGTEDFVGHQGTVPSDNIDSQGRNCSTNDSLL
# UCH37 inh – blocks the human deubiquitinase UCH37 | purified proteasome/UCH37, Ub-AMC cleavage fluorescence | Q9Y5K5 | inhibition, % (test concentration not listed) | 330,000 tested, 0.33% active;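 active = mean of two replicates above 20%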;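 note: 0% = compound-free wells with enzyme and 100% = wells lacking proteasome; stock transfer was 100 nL into about 20 µL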
# Target sequence (Q9Y5K5 whole entry, looked up): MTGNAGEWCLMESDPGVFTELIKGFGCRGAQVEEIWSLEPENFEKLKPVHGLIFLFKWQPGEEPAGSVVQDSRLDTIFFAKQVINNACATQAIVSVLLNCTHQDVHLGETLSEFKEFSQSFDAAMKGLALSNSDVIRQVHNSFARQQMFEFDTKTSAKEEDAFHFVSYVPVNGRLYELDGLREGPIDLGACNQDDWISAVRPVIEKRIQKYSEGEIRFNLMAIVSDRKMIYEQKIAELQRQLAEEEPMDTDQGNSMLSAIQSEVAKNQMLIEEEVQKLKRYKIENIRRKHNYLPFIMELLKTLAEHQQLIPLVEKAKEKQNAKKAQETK
#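 Material: human UCH37 enzyme supplied as purified proteasome complex. Measure: % inhibition of Ub-AMC cleavage fluorescence. Medium: pH 7.4 Tris-HCl (50 mM) with ovalbumin, ATP-MgCl2, DTT. Times: 30 min preincubation with enzyme, 25 min cleavage at room temperature. Detection: AMC fluorescence intensity at 355/460 nm.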
# E coli growth – E. coli growth inhibition | 330,000 tested, 0.21% active | Escherichia coli growth, OD600, 23 h; hits give low values | AID 1053175 | OD600 absorbance (no concentration beside the values);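 active = OD600 absorbance below the run mean of sample wells minus 3.6 SD, in any replicate, cut at about 0.56 in these data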;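 note: stock transfer was 300 nL into about 60 µL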
# HNF4A DNA FP – change in binding of human HNF4 alpha to DNA. HNF4a-FITC DNA binding, fluorescence polarization, 1 h. AID 1224865. P41235. activity change, % at 10 µM. 360,000 tested, 0.3% active; in the data active = activity change above about 30%, passing the limit was not always enough;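 note: controls were the assay level and a saturating level of protein; the project sought stronger binding though the title names inhibitors; some compounds called inactive have numbers as strong as hits; positive values seem to mean higher polarization but the record does not say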
# ALR H2O2 inh – human ALR oxidase inhibition via reduced H2O2; P55789; purified ALR, DTT oxidation, H2O2 HRP-luminol luminescence; inhibition, % (no concentration beside the values); 290,000 tested, 3.8% active;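 active = mean and each replicate at 75% or more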;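 note: stock transfer was 7.5 nL into about 7.5 µL; 0% = neutral wells and 100% = wells with inactivated enzyme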
# Target sequence (P55789 whole entry, looked up): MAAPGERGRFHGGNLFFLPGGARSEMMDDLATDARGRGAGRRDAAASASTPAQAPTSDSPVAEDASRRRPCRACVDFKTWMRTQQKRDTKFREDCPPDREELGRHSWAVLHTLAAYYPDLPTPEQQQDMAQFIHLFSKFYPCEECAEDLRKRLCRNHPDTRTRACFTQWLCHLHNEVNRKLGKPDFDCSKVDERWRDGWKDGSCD
# Ecoli rRNA inh – inhibits bacterial ribosomal RNA function over humanized ribosomes | E. coli WT GFP vs humanized-ribosome RFP mutants, fluorescence, 24 h; hits give low values; DMSO median 0, no signal -100 | GFP signal change (wild-type ribosome), % (concentration not given with the values) | 350,000 tested, 1.6% active | AID 720706;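 active = significant combined selectivity score with lowered wild-type GFP, culture density cut under 30%, mutant RFP and density less affected; inactive = any of these conditions unmet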; note: one replicate is shown; some compounds called inactive have numbers as strong as hits
# FGF22 binding – shifts melting point of recombinant human FGF22. Q9HCT0. recombinant FGF22 thermal shift, SYPRO orange fluorescence; percent of sucrose octasulfate shift, DMSO zero. calls only at 9.99 µM. 340,000 tested, 1.5% active. AID 651658;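 active = melting point raised past a set limit in the mean and every replicate; three in four hits are not shown here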
# Ecoli rRNA inh OD600 – further read-out of Ecoli rRNA inh, marked with its call; OD600 change, %; measured here: OD600 growth;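 optical density of the mix in the first replicate; 0 = DMSO median and -100 = no signal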
# Ecoli rRNA inh RFP – second read-out of Ecoli rRNA inh, no call of its own (marks repeat the call); RFP signal change, %; measured here: RFP humanized mutant strains;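 first replicate; 0 = DMSO median and -100 = no signal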
# Starred values were filed as active, the others as inactive; i = inactive; . = no result given; + = active, no number; & = joins results of further samples. Only part of the results is shown. The share of hits here may be higher or lower than overall.
SMILES,Beta2AR agonist,UCH37 inh,E coli growth,HNF4A DNA FP,ALR H2O2 inh,Ecoli rRNA inh,Ecoli rRNA inh OD600,Ecoli rRNA inh RFP,FGF22 binding
O=C(NCc1ccco1)c1cc(-c2ccccc2)c(N2CCOCC2)s1,0,0.9,0.75,0.8,87*,.,.,.,.
O=C1[C@@H]2[C@H](C(=O)N1O)[C@H]1C=C[C@@H]2C1,0,3.1,0.72,-1.8,-3,.,.,.,.
Cc1cc(=O)[nH]c(-n2nc(C)cc2C)n1,9,1.0,0.65,-1.6,-38,.,.,.,.
c1cncc(-c2nnc3n2CCC3)c1,-5,0.8,0.64,0.5,-5,9,-2,2.6,i
CSc1nnc(NC(=O)c2cc(=O)c3cc(C)cc(C)c3o2)s1,-2,34*,0.64,-0.7,12,.,.,.,i
CCC(C)OC(=O)c1[nH]c2c(c1C)C(=O)CC(c1ccc(N(C)C)cc1)C2 (stereo unspecified),4,1.4,0.77,1.2,-10,-9,-15,-3.1,i
O=C1CC(C(F)(F)C(F)(F)C(F)(F)F)=Nc2ccccc2N1,7,4.8,0.73,1.8,-10,.,.,.,.
CCOC(=O)C1=C(COC(=O)c2ccc(OC)c(OC)c2OC)NC(=O)NC1C (stereo unspecified),3,2.1,0.6,-0.5,0,-6,-4,-2.0,i
CCOC(=O)N1CCC(N(CCN(C)C)C(=S)Nc2ccc(F)c(Cl)c2)CC1,9,1.2,0.68,4.5,-3,-4,-1,-1.5,i
CCCCNC(=O)CN1C(=O)NC2(CCCc3ccccc32)C1=O (stereo unspecified),3,1.5,0.66,-4.7,-24,.,.,.,.
Cc1ccn(Cc2n[nH]c(=S)n2Cc2ccccc2)n1,-2,-1.0,0.72,0.1,91*,.,.,.,.
CCCCNC(=O)NNC(=O)C1CC1(c1ccccc1)c1ccccc1 (stereo unspecified),25,-0.5,0.69,-2.4,-3,3,1,7.0,i

# Grouped by structure, the entries above containing a carbonyl joined to an NH by a bond outside any ring.
SMILES,Beta2AR agonist,UCH37 inh,E coli growth,HNF4A DNA FP,ALR H2O2 inh,Ecoli rRNA inh,Ecoli rRNA inh OD600,Ecoli rRNA inh RFP,FGF22 binding
O=C(NCc1ccco1)c1cc(-c2ccccc2)c(N2CCOCC2)s1,0,0.9,0.75,0.8,87*,.,.,.,.
CSc1nnc(NC(=O)c2cc(=O)c3cc(C)cc(C)c3o2)s1,-2,34*,0.64,-0.7,12,.,.,.,i
CCCCNC(=O)CN1C(=O)NC2(CCCc3ccccc32)C1=O (stereo unspecified),3,1.5,0.66,-4.7,-24,.,.,.,.
CCCCNC(=O)NNC(=O)C1CC1(c1ccccc1)c1ccccc1 (stereo unspecified),25,-0.5,0.69,-2.4,-3,3,1,7.0,i

# Going on with the list:
SMILES,Beta2AR agonist,UCH37 inh,E coli growth,HNF4A DNA FP,ALR H2O2 inh,Ecoli rRNA inh,Ecoli rRNA inh OD600,Ecoli rRNA inh RFP,FGF22 binding
Cc1ccc(NC(=O)N2CCCC2C(=O)NCCC2=CCCCC2)cc1 (stereo unspecified),0,2.5,0.74,3.3,-7,.,.,.,.
CCOC(=O)c1sc(NC(NC(=O)c2ccco2)(C(=O)OC)C(F)(F)F)nc1C (stereo unspecified),9,2.4,0.74,-0.9,-28,.,.,.,.
O=C(CNC(=O)c1ccccc1O)N/N=C/c1cc(Br)ccc1OC(=O)/C=C/c1ccco1,.,.,.,.,1,-19,-14,21,i
O=C(Cc1cccc(NC(=O)C2CCCN(C(=O)C3CC3)C2)c1)Nc1cccc(C(=O)N2CCOCC2)c1 (stereo unspecified),-10,-0.1,0.67,-0.3,.,9,26,-3.5,i
O=C(CN(Cc1ccccc1Cl)S(=O)(=O)c1ccc(Cl)cc1)N/N=C/c1ccc(C(=O)O)cc1,5,.,.,-1.4,71,-41,-57,-8.2,+
O=C(c1ccccc1)N1CCCCC(Sc2nnnn2-c2ccccc2)C1=O (stereo unspecified),2,2.0,0.69,-0.1,6,.,.,.,.
Cc1noc(C)c1COc1ccc(C(=O)OCC(=O)Nc2ccc3ccccc3c2)cc1,0,4.1,0.7,3.3,-3,.,.,.,.
C[C@H](NC(=O)[C@@H]1CSC2c3ccccc3C(=O)N21)C(=O)NCCc1ccccc1 (stereo partly specified),2,.,.,-3.5,-3,3,7,1.0,i
Cc1cc(=O)n2[nH]c(C)c(-c3ccc(Cl)cc3)c2n1,1,-7.1,0.73,-3.2,20,.,.,.,.
COc1ccc(N=C2SC(CC(=O)Nc3ccccc3)C(=O)N2CCN2CCOCC2)cc1 (stereo unspecified),-13,1.9,0.7,2.6,-13,-7,-1,2.2,i
CSCC[C@H](NC(=O)Cc1c(C)c2c(cc(C)c3c(C)coc32)oc1=O)C(=O)O,2,-315,0.69,-3.8,36,4,9,4.4,i
CCOCCCNCc1ccc(OCc2ccccc2C)c(OC)c1,20,4.2,0.68,1.7,-2,5,-1,-0.7,i
N#Cc1nc(Cc2cccc3ccccc23)oc1NCc1ccco1,7,5.0,0.67,-4.3,-5,-52,-71,-24,i
O=C1C=C(c2cc(F)ccc2F)C[C@@H](c2ccc(F)cc2)C1,-11,0.9,.,-3.3,2,-19,-37,-17,i
CC1Cc2nc(SCC(N)=O)n(Cc3ccccc3)c(=O)c2S1 (stereo unspecified),-16,6.9,0.73,1.4,2,6,7,0.8,i
Cc1cc(N2CCN(C)CC2)ccc1NC(=O)c1ccc(-c2ccc(Cl)cc2)o1,31,8.1,0.62,-0.6,3,-31,-44,-2.8,i
O=C(COC(=O)c1cnccn1)NC(=O)c1ccccc1,2,1.3,0.69,-2.5,-12,6,6,-2.1,i
Cc1cc(C)n(CC(=O)N2CCc3ccccc32)c(=O)c1C#N,6,0.3,0.7,3.4,1,8,6,1.0,i
COc1ccc(C2C=C(C)Nc3nc(SC)nn32)cc1 (stereo unspecified),-11,-103,0.74,2.0,20,.,.,.,.
Cc1cc(NC(=O)CCC(=O)N(c2cccnc2)C(C(=O)NC2CCCC2)c2ccccc2)no1 (stereo unspecified),-6,0.3,0.72,-0.7,1,.,.,.,.
CC(C)(C)c1ccc(C(O)c2ncc(-c3ccc(F)cc3)[nH]2)cc1 (stereo unspecified),.,.,.,-2.0,.,-59,-81,-21,i
O=C(CSc1ncnc2c1cnn2-c1ccccc1Cl)N1CCN(C(=O)c2ccco2)CC1,4,4.7,0.75,0.5,8,.,.,.,.
CC(C)N(C(=O)Cn1c(SCC(=O)NC2CC2)nc2ccccc21)C(C)C,-6,2.8,0.68,4.2,-6,0,3,-2.0,i
COc1ccccc1C1CCN(C(=O)c2cccc([N+](=O)[O-])c2)CC1,-2,5.5,0.68,-4.8,-20,-10,13,-0.9,i
O=C(CC1CCCC1)Nc1nnc(C2CC2)s1,-3,-1.2,0.7,0.8,.,.,.,.,.
CC(=O)c1ccc(N2CCN(C3CCC(C(C)(C)C)CC3)CC2)cc1 (stereo unspecified),-3,-2.4,0.64,2.8,-3,0,0,0.1,i
Cc1cccc(NC(=S)NC23CN4CN(CN(C4)C2)C3)c1,2,-0.1,0.69,-2.2,1,14,20,5.2,i
COc1ccccc1NC(=O)c1coc(=O)c(Br)c1,10,1.0,0.7,-5.7,-5,4,6,1.4,i
COc1ccc(C(C)=O)cc1CN1C(=O)C(C)ON=C1c1ncccc1C (stereo unspecified),.,.,.,4.2,.,-1,5,-13,i
Cc1cc(C)cc(N(CC(=O)NCc2ccco2)S(=O)(=O)c2c(C)noc2C)c1,5,7.1,0.75,0.7,86*,9,-5,-0.3,i
CN(Cc1cccc(F)c1)C(=O)c1ccc(S(=O)(=O)N2CCCCCC2)cc1,-9,-0.2,0.63,1.5,-35,-36,-66,-3.5,i
Cc1c(NC(=O)C(C)OC(=O)c2ncc(Cl)c(Cl)c2Cl)c(=O)n(-c2ccccc2)n1C (stereo unspecified),-10,0.8,0.7,0.0,0,8,16,-2.0,i
O=C(NCCc1cnc[nH]1)Nc1cccc(C(F)(F)F)c1,4,0.7,0.66,-0.6,-7,6,4,-2.6,i
Cn1c(C2CCCCC2)nc2c1c(=O)[nH]c(=O)n2Cc1ccccc1,7,0.1,0.67,-0.4,8,15,1,-2.8,i
C[C@]12c3[nH]c4cc(-c5ccco5)ccc4c3CCN1C(=O)[C@@H](CC(=O)NCCN1CCOCC1)C[C@@H]2C(=O)N1CCCCC1,1,-19,0.67,-0.6,.,7,-1,2.8,i
Cc1cc(C)c2cc(C#N)c(NCCOC(=O)c3ccccc3C)nc2c1,-11,-74,0.69,-1.0,1,.,.,.,.
CN(CC(=O)Nc1ccc(Cl)c(C(F)(F)F)c1)C(=O)C1CCCO1 (stereo unspecified),-1,0.1,0.59,5.6,-2,-2,-5,-2.5,i
N#C/C(=N\Nc1ccc(S(=O)(=O)N2CCCCC2)cc1)C(N)=S,8,.,.,1.1,1,-32*,-19*,-3.7*,i
Cc1cc(C(=O)Nc2c(C)nn(Cc3ccccc3)c2C)on1,1,7.7,0.73,-0.1,-16,6,16,-2.2,i
Cc1c(Cl)cccc1NC(=S)NCCc1ccccn1,4,6.0,0.67,1.3,65,-3,-1,-0.7,i
CCC1Oc2ccc(C)cc2N(CC(=O)NCC2COc3ccccc3O2)C1=O (stereo unspecified),2,6.5,0.72,-5.2,-8,-20,-57,-4.9,i
COc1cc(/C=N/NC(=S)Nc2cccc(Cl)c2C)ccc1OCC(=O)N1CC(C)OC(C)C1 (stereo unspecified),17,.,.,-0.7,7,.,.,.,.
COc1ccccc1N1CCN(C(=O)NCc2cccc(C(F)(F)F)c2)CC1,0,3.0,0.68,0.8,14,1,-1,1.8,i
CC(/C=C/c1ccccc1)=N\NC(=O)Cn1nc(C)cc1C,-7,.,.,-0.9,-2,.,.,.,.
C=CCOC(=O)C1=C(C)OC(N)=C(C#N)C1c1ccc(OC)c(CSc2ccccn2)c1 (stereo unspecified),-3,0.0,0.66,-0.2,3,9,8,1.9,i
O=c1[nH]n(Cc2ccccc2)c2ccccc12,7,-105,0.67,3.9,99*,3,0,-14,i
COc1cccc(CNC(=O)C2=Cc3cccc(OC)c3OC2)c1,-7,1.6,0.64,-1.3,96*,5,10,-2.4,i
Cc1ccc(S(=O)(=O)N(C)C)cc1NC(=O)C1CCN(C(=O)Nc2ccccc2)CC1,-8,-0.7,0.67,1.7,.,21,18,4.4,i
COc1ccc(-n2ccnc(SCC(=O)NCc3ccccc3Cl)c2=O)cc1,1,-27,0.7,1.8,99*,0,0,2.3,i
COc1cccc(CNC(=O)c2cc(S(=O)(=O)N3CCCC3)cn2C)c1,0,5.8,0.69,-1.0,-12,2,1,-1.1,i
COc1ccc(S(=O)(=O)N(C)C[C@H]2Oc3ccc(NS(=O)(=O)c4cccs4)cc3CC(=O)N([C@H](C)CO)C[C@H]2C)cc1,0,-4.2,0.75,1.6,0,-1&-9,-10&-12,1.0&1.5,i
Nc1ccc(C(=O)OCC(=O)N2CCN(C(=O)c3ccco3)CC2)cc1[N+](=O)[O-],-5,-1.1,0.68,3.4,-3,9,12,1.2,i
COc1ccc(S(=O)(=O)Cc2ccc(C(=O)N3CCN(c4ncccn4)CC3)o2)cc1,-5,1.2,0.76,2.0,71,-3,-3,3.2,i
CC(=O)Nc1ccc(S(=O)(=O)NCC(=O)OCC(=O)N2CCN(c3ccccc3)CC2)cc1,11,0.9,0.7,-0.1,34,10,10,-1.4,i
